# rRNA inh HTS: selective bacterial rRNA inhibition in E. coli; E. coli WT GFP vs humanized-ribosome RFP mutants, fluorescence, 24 h; stronger effect = lower value; DMSO median 0, no signal -100; actives 1.6% (n = 350,000); GFP signal change (wild-type ribosome), % (test concentration not listed);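 active = significant combined selectivity score with lowered wild-type GFP, culture density cut under 30%, mutant RFP and density less affected; inactive = any of these conditions unmet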; note: one replicate is shown; some compounds called inactive have numbers as strong as hits
# T cruzi inh: T. cruzi replication inhibition. AID 1885. T. cruzi beta-gal in NIH3T3, luminescence, 90 h. actives 1.4% (n = 300,000). inhibition, % (test concentration not listed);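 active = mean inhibition across valid replicates above about 55%, limit read from the data; inconclusive = mean below that limit but half or more replicates reach it; inactive = mean below it, under half of replicates reach it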;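 note: signal also drops with host cell toxicity which is not excluded here; 0% = plate median of DMSO wells and 100% = zero luminescence signal; higher percent means less beta-gal luminescence so fewer parasites; stock transfer was 50 nL into about 50 µL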
# Calb FLC: affects C. albicans growth with fluconazole. C. albicans CaCi-2 (fluconazole-resistant clinical isolate) + fluconazole, Alamar Blue growth, 48 h. growth inhibition, % (test concentration not listed). actives 0.57% (n = 300,000);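 active = most replicates above 75%; inconclusive = exactly half above 75%; inactive = most below 75%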;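 note: all wells also contain fluconazole at 8 µg/ml as a sub-toxic cotreatment; 0% = median of DMSO wells and 100% = median of geldanamycin control wells; wells of about 8 µL received 7.5 nL stock; the first replicate is given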
# Beta2AR agonist: activates human beta-2 adrenergic receptor causing internalization; Am2.2-beta2AR cells, FAP receptor internalization, flow cytometry; reference of the scale not given here; response, % (no concentration beside the values); actives 0.43% (n = 340,000); P07550;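 active = response above a set limit, near 3 SD of response in nonfluorescent compounds, cut at about 42% in these data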;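 note: stock transfer was 100 nL into about 11 µL; a reference agonist was the positive control; negative values mostly stem from fluorescent compounds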
# LANA-H2B inh: blocks KSHV LANA binding to histone H2A/H2B; Q9QR71; cell-free LANA-H2A/H2B peptide, fluorescence polarization; inhibition, % (no concentration beside the values); actives 0.6% (n = 320,000); AID 2629; in the data active = inhibition mostly above about 10%, no sharp cut-off; inactive = mostly below about 6.7%;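 note: stock transfer was 7.5 nL into about 10 µL; 0% = median of vehicle wells and 100% = median of positive control wells; one replicate is shown; the record names a cut of 25% in any replicate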
# Target sequence (Q9QR71 whole entry, looked up): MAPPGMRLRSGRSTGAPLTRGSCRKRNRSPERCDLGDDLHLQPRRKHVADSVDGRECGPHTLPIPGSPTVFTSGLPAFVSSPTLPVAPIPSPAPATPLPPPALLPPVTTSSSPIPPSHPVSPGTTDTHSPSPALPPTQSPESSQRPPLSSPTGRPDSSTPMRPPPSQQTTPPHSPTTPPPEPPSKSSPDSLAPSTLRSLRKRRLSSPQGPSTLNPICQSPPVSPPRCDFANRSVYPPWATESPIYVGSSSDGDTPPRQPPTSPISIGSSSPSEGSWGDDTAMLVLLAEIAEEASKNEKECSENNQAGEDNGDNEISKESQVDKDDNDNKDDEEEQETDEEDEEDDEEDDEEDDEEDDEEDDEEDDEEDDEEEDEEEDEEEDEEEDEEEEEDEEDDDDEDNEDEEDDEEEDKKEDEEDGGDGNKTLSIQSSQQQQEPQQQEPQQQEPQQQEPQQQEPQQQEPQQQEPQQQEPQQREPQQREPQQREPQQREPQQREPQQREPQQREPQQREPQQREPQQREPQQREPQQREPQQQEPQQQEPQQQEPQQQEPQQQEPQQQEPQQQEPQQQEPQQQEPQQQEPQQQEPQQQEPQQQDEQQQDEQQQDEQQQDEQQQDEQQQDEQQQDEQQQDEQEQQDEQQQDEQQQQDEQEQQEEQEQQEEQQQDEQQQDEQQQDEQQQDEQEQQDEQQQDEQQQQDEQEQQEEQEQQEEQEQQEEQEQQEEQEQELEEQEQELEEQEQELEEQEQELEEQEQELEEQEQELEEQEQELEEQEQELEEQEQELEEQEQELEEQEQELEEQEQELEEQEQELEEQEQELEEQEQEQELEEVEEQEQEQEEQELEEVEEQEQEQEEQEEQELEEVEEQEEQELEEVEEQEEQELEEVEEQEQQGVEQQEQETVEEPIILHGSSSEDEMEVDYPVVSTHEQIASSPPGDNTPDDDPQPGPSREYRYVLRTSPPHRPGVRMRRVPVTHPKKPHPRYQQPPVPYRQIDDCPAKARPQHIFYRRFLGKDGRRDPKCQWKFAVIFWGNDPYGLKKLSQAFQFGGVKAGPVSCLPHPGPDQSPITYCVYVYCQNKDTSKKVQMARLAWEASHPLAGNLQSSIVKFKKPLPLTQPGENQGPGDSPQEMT
# ALR H2O2 inh: inhibitors of human sulfhydryl oxidase ALR; P55789; purified ALR, DTT oxidation, H2O2 HRP-luminol luminescence; inhibition, % (concentration not given with the values); actives 3.8% (n = 290,000);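 active = mean and each replicate at 75% or more; inconclusive = only one of the two met; inactive = neither met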;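 note: stock transfer was 7.5 nL into about 7.5 µL; 0% = neutral wells and 100% = wells with inactivated enzyme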
# Bfl-1 A1 inh: inhibitors of the anti-apoptotic protein A1, read as caspase activation. MEF A1-2A-BIM cells, Caspase-Glo 3/7 luminescence, 3 h; percent of clofoctol response, vehicle zero. caspase activation, % (test concentration not listed). actives 0.066% (n = 330,000). AID 2462;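 active = over half of replicate activation scores above 10%, or exactly half above 10 with the replicate mean above 10; inconclusive = replicate mean below 10 yet half the replicates above 10; inactive = over half of replicates below 10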;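 note: wells of about 30 µL received 50 nL stock; many hits fall short of the cut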
# Beta cell apopt: beta cell apoptosis inhibition; INS-1E cytokine-induced death, ATP luminescence, 48 h; percent of positive-control rescue, neutral wells zero; protection from apoptosis, % (concentration not given with the values); actives 0.8% (n = 300,000);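 active = all replicates at 75% or more, or half of them and the mean; inconclusive = half reach 75% but not the mean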;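 note: 0% = cytokine-treated negative control wells and 100% = positive control rescue; higher means more ATP so stronger rescue from cytokine killing; wells of about 40 µL received 100 nL stock; the first replicate is given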
# rRNA inh HTS OD600: second read-out of rRNA inh HTS, no call of its own (marks repeat the call); OD600 change, %; measured here: OD600 growth;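 optical density of the mix in the first replicate; 0 = DMSO median and -100 = no signal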
# rRNA inh HTS RFP: recorded beside rRNA inh HTS, whose call it bears; RFP signal change, %; measured here: RFP humanized mutant strains;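 first replicate; 0 = DMSO median and -100 = no signal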
# * = called active by the depositor; ? = inconclusive; / = not tested or not shown.
entry	smiles	rRNA inh HTS	rRNA inh HTS OD600	rRNA inh HTS RFP	T cruzi inh	Calb FLC	Beta2AR agonist	LANA-H2B inh	ALR H2O2 inh	Bfl-1 A1 inh	Beta cell apopt
1	COc1ccc(N2CC(C(=O)NCc3nnnn3-c3ccc(C)c(C)c3)CC2=O)cc1 (stereo not drawn)	-1	2	1.9	-19	0	0	-0.7	-2	1.4	1
2	COc1cccc(/C=N/NC(=O)c2[nH]c(C)c(C(=O)N/N=C/c3cccc(OC)c3)c2C)c1	/	/	/	-18	1	16	0.0	-5	1.4	-4
3	COCCCNC(=S)Nc1ccc(OC(F)F)cc1C	0	5	1.9	-13	-21	4	1.6	/	-0.3	1
4	COCCNC(=S)N/N=C/c1ccc([N+](=O)[O-])cc1	10	10	-2.2	-17	10	-1	-3.8	/	-0.3	1
5	COC(=O)c1ccc(COC(=O)c2ccc(CO)cc2)o1	1	-4	-2.1	-20	6	-3	1.8	1	0.0	0
6	Cc1cccc(C)c1NC(=O)COC(=O)C1Cc2ccccc2CN1C(=O)c1ccccc1 (stereo not drawn)	/	/	/	8	-27	-3	2.4	-6	0.5	3
7	Cc1cccn2c(=O)c3cc(C(=O)NCc4cccnc4)c(=N)n(C(C)C)c3nc12	/	/	/	-4	5	6	-6.6	-1	2.2	4
8	S=C1N(c2ccccc2)C(c2cccc3ccccc23)N2CCCN12 (stereo not drawn)	/	/	/	-7	-3	-2	-1.0	-13	-0.2	-2
9	CCOC(=O)NC(=O)CSc1nc2ccccc2[nH]1	7	3	-6.1	-5	3	9	3.7	-10	0.8	-6
10	Cc1cccc(-c2nnc(SCC#N)n2C)c1	-1	7	0.1	-10	-18	-2	-1.2	-4	-0.1	2
11	C=CCC1(CC=C)CCCN1C(=O)C1CCC(=O)N(CCc2ccc(Cl)cc2)C1 (stereo not drawn)	-32	-49	-3.1	18	3	4	/	-43	/	/
12	O=C(C1COc2ccccc2O1)N1CCN(c2ccc(F)cc2)CC1 (stereo not drawn)	-1	-2	1.6	-6	-7	4	-1.0	12	-0.1	-4
13	O=[N+]([O-])c1cc(Br)c(Nc2ccccc2)c([N+](=O)[O-])c1	-8	-25	-7.2	39	34	47*	0.2	10	0.4	68
14	C=CCn1c(SCC(=O)c2c(N)n(CCC)c(=O)n(C)c2=O)nc2sc(CC)cc2c1=O	/	/	/	-3	2	2	-1.5	4	0.6	9
15	COC(=O)c1c(NC(=O)CC2SC(N)=NC2=O)sc2c1CCCC2 (stereo not drawn)	18	8	0.4	5	3	-5	2.1	/	-0.1	-1
16	COc1ccc([N+](=O)[O-])cc1NC(=S)NC(NC(=O)Cc1ccc(OC)c(OC)c1)C(Cl)(Cl)Cl (stereo not drawn)	/	/	/	10	-1	-2	12	-2	-0.7	4
17	CC(=O)Nc1ccc(S(=O)(=O)Nc2ccc3[nH]c(=O)[nH]c3c2)cc1	0	3	-1.7	-12	1	-5	0.5	-2	-0.1	2
18	CCCCc1cc(=O)oc2cc(O)ccc12	-6	-20	-2.0	-6	16	-5	0.4	46	-0.7	2
19	CC(=O)Nc1ccc(-c2sc(Nc3ccccc3)n[n+]2C)cc1	5	-6	-4.5	-11	1	-22	0.4	-4	0.8	1
20	O=C(c1ccc(N2CCN(C(=O)c3cccc(F)c3)CC2)cc1)c1cccc(F)c1	-22	-35	8.7	22	-8	13	0.6	-4	-0.6	5
21	COC(=O)Cn1c(CCS(=O)(=O)c2ccc(C)c(C)c2)nc2ccccc21	/	/	/	-11	4	13	-0.3	1	1.3	/
22	CCCCN(Cc1ccccc1)C(=O)CCN1C(=O)C2C3C=CC(C3)C2C1=O (stereo not drawn)	-1	-4	0.1	-3	-2	-1	2.6	1	0.3	-5
23	Cc1nnc(NC(=O)c2nc(S(=O)(=O)Cc3ccccc3C)ncc2Cl)s1	3	6	1.5	-8	-2	10	-0.1	15	-0.7	-38
24	CCn1c(-c2nn(C)cc2Cl)n[nH]c1=S	/	/	/	-17	0	1	-1.2	33	1.4	-5
25	O=c1nc(N/N=C/c2ccco2)cn[nH]1	/	/	/	-2	-13	-3	-18	-1	-1.8	-6
26	Cc1nc(/C(N)=N/OC(=O)c2ccc(Cl)cc2)c(C(F)(F)F)o1	1	4	0.2	-24	-9	-3	-1.7	-16	-1.4	-1
27	COc1ccc(N2C(=O)CC(N3CCN(S(=O)(=O)c4c(C)cc(C)cc4C)CC3)C2=O)cc1 (stereo not drawn)	-1	1	4.3	/	/	-5	-1.9	-4	0.1	-4
28	Cc1ccc(N(CC(=O)NCc2ccccc2)C(=O)CCC(=O)Nc2ccccn2)cc1C	5	1	-6.3	-3	17	3	-1.8	-2	-0.1	7
29	Cn1c(O)c(/C=C2\C=NN=C2c2ccccc2)sc1=S	12	1	6.1	-1	21	6	3.9	-1	0.6	-1
30	Cc1cc(C)nc(SCC(=O)Nc2ccc(S(=O)(=O)Nc3onc(C)c3C)cc2)n1	5	14	8.6	-8	-1	5	2.5	94*	0.4	/
31	COc1ccc(NC(=S)NCc2cccn2C)cc1	12	12	6.8	-23	2	2	-3.2	-7	-0.2	3
32	COC(=O)[C@]1(C)N[C@H](c2ccc(SC3CCCCC3)cc2)[C@@H]2C(=O)N(C)C(=O)[C@@H]21	5	2	-14	-11	-6	-5	15	1	1.8	-3
33	CN(C)c1nnnn1Cc1ccc(Cl)cc1Cl	-2	4	-4.9	4	-8	5	0.7	-3	-1.2	-14
34	CC(=O)Nc1ccc(S(=O)(=O)NNC(=O)c2sc(=S)n(C)c2C)cc1	8	20	-0.8	1	-2	-14	0.1	12	1.2	-1
35	CC(C(=O)NC1C=CS(=O)(=O)C1)N1C(=O)/C(=C/c2cccc(Cl)c2)SC1=S (stereo not drawn)	-28*	-14*	-0.9*	-1	-1	3	0.7	34	-1.2	/
36	O=C(O)CCCn1cc(NC(=O)COc2cc(F)ccc2[N+](=O)[O-])cn1	13	7	-1.5	-7	-1	-4	-3.9	-15	-0.1	/
37	CCOc1ccc(CNC(=O)c2ccc3nc(N4CCOCC4)sc3c2)cc1	4	12	0.5	5	8	/	-4.6	0	-0.2	0
38	O=C(CSc1nnc(-c2ccco2)o1)c1ccc([N+](=O)[O-])cc1	-2	-4	-1.4	13	-9	-1	-1.2	/	-0.7	-4
39	COC(=O)Cn1c(CN2CCN(C(=O)c3ccco3)CC2)nc2c1c(=O)n(C)c(=O)n2C	12	11	1.4	-10	11	2	-1.6	1	0.1	-4
40	COc1ccc(CN2CCCCC2C)cc1C (stereo not drawn)	/	/	/	18	-14	4	2.7	-6	3.6	-8
41	O=C(CSc1nc2ncc(Cl)cc2[nH]1)Nc1ccccc1-c1ccccc1	0	3	-2.0	6	24	2	4.6	-2	0.0	13
42	O=C1c2ccccc2C(Nc2ccc(Cl)cn2)N1c1ccccn1 (stereo not drawn)	-1	-16	-6.6	14	-3	12	7.9	0	-0.2	-2
43	O=C(Cc1ccc(Cl)cc1)c1c[nH]c(C(=O)NCc2cccnc2)c1	16	19	4.1	-8	-22	1	-4.3	6	-0.3	107*
44	COc1cccc(CNC(=O)c2ccncc2)c1	5	5	-2.5	-15	-25	-4	0.6	-4	0.5	-1
45	COc1cccc(C(=O)O/N=C(\N)c2ccc(C)cc2)c1	3	-10	-1.7	1	9	0	-1.3	42	-7.6	-10
46	N#CC1=C(N)C(C#N)(C#N)[C@H](c2ccncc2)[C@H]2CC3(CC=C12)OCCO3	/	/	/	-26	?	-5	-2.0	-42	0.5	-2
47	CCc1ccc(NC(=O)C2CC(=O)N=C(N)S2)cc1 (stereo not drawn)	/	/	/	3	6	-3	-2.2	-11	1.6	-5
48	COc1cccc(NC(=O)[C@H](C)NC(=O)N2CCn3c2nc2ccccc23)c1	-1	-4	1.5	-16	-8	-7	-3.1	-2	0.2	-4
49	CCOC(=O)c1ccc(NC(=O)NCc2ccccc2)cc1	-26	-27	-9.6	18	3	3	6.6	-2	0.2	-6
50	O=C(NCCS(=O)(=O)NCc1ccco1)c1ccccc1	6	8	-1.2	-2	2	1	-4.8	-3	0.8	-2
51	O=C(NC1CC1)C1=C[C@H](c2c[nH]c3ccccc23)C[C@H](OCCCCO)O1	20	10	2.8	5	8	-8	-4.9	-18	0.0	-1
52	Cn1cccc1/C=C1\SC(=S)N(NC(=O)c2ccccc2O)C1=O	-28*	-7.3*	6.0*	35	46	25	-13	3	0.2	1
53	CCN1C(=O)CC(c2ccccc2)CC1=O	12	9	-1.0	-10	2	-2	-3.0	2	-0.8	-9
54	O=C(COC(=O)c1cc([N+](=O)[O-])ccc1NCc1ccccc1)NCc1ccccc1Cl	7	10	-1.6	2	0	1	-0.7	-15	-0.4	1
55	CC(=O)N1CCN(C(=O)c2c(-c3ccccc3)noc2C)CC1	5	10	-0.9	/	/	1	22*	-1	-0.2	-8
56	Cc1ccc(Cn2nc(C)c(NC(=O)CSc3nc4c(c(C(F)(F)F)n3)CCc3ccccc3-4)c2C)cc1	14	18	9.2	21	5	46*	-2.7	/	0.0	46
57	CN(C)CCCNC(NC(=O)c1cccs1)C(Cl)(Cl)Cl (stereo not drawn)	/	/	/	45	4	2	4.7	-1	0.6	1
58	Cc1nn(C(C)C(=O)NCCCc2ccccc2)c(=O)c2cc3occc3n12 (stereo not drawn)	/	/	/	-6	1	-17	-1.2	-5	0.8	-5
59	CC(C)(C)C(=O)Nc1ccccc1C(=O)OCC(=O)c1ccc2c(c1)OCCO2	/	/	/	5	0	-3	5.5	-3	-0.4	2
60	C[C@@H](NC(=O)[C@@H]1Cc2ccccc2CN1)C(=O)NCC1CCCO1 (stereo partly drawn)	5	9	-1.7	-4	18	2	-3.4	-2	-2.0	0

# Next section:
entry	smiles	rRNA inh HTS	rRNA inh HTS OD600	rRNA inh HTS RFP	T cruzi inh	Calb FLC	Beta2AR agonist	LANA-H2B inh	ALR H2O2 inh	Bfl-1 A1 inh	Beta cell apopt
61	Cc1ccccc1-c1nnn(CC(=O)Nc2cccc(S(N)(=O)=O)c2)n1	-16	-7	-2.2	-16	-2	1	0.5	0	-0.1	-8
62	CC1=C(C(=O)N2CCCC(N3CCN(c4ccccc4C)CC3)C2)OCCO1 (stereo not drawn)	6	7	0.8	7	-14	13	2.2	16	0.1	0
63	CCOC(=O)c1c(C)n(C)c2ccc(OC(=O)c3ccc(N4C(=O)CCC4=O)cc3)cc12	10	3	7.0	-13	-3	5	1.8	-1	1.3	3
64	O=C1c2ccccc2OC2(C=Cc3ccccc3O2)N1Cc1ccccc1 (stereo not drawn)	/	/	/	21	-4	1	6.2	-19	0.0	14
65	Cc1ccc(S(=O)(=O)N[C@H](C(=O)NCC2CCC(C(=O)O)CC2)C(C)C)cc1 (stereo partly drawn)	2	10	-6.5	-9	2	-7	-0.3	-5	1.0	-3
66	CCN(CC)c1ccc(N2C(=O)/C(=C/c3cccs3)SC2=S)cc1	/	/	/	12	-2	13	4.1	-15	0.5	3

# Not all compounds are listed. The share of hits here may be higher or lower than overall.
